Assay outcomes deposited in PubChem by several laboratories.
RecA splice inh – blocks M. tuberculosis RecA intein splicing; cell-free RecA intein splicing, fluorescence; inhibition, %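 (about 9 µM by stock and volumes)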; hit rate 0.75% among 290,000; in the data active = inhibition above about 30%; inconclusive = no clear call, values can overlap the other calls;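 also: 0% = vehicle wells and 100% = reference inhibitor control wells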
Target sequence (P9WHJ3 whole entry, looked up, canonical isoform): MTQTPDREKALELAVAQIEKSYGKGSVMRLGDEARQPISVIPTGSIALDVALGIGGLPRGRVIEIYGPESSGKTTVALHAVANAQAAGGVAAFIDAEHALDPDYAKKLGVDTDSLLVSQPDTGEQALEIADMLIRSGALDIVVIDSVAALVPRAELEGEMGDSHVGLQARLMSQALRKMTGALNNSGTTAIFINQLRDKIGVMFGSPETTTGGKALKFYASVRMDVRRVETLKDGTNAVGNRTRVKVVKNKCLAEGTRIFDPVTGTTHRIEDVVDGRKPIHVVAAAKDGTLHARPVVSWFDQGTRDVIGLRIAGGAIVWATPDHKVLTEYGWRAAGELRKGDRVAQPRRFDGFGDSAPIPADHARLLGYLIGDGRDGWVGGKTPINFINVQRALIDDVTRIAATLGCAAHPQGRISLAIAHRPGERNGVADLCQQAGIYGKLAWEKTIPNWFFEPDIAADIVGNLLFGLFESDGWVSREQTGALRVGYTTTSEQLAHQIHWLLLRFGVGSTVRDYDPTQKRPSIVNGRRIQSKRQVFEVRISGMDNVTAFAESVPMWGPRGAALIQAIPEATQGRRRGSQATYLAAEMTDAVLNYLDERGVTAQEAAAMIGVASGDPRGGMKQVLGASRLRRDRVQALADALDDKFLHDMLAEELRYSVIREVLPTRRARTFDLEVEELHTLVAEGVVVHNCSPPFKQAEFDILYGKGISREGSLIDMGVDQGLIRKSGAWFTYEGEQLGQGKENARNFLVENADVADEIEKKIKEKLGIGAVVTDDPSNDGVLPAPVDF
YopH inh – YopH (Yersinia) phosphatase inhibition. fluorescence Ex485/Em525. inhibition, %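 (about 10 µM by stock and volumes)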. hit rate 0.16% among 140,000;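 active = inhibition of 50% or more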;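 also: controls were vehicle for no effect and minimum signal wells for full effect; inactives centre near -20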
Arbovirus inh – antivirals against arbovirus infection; hit rate 0.37% among 200,000; inhibition, % at 10 µM; arbovirus infection cell-based antiviral screen; AID 1251;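 active = inhibition from about 30%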;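 also: bluetongue infection of BSR cells; cell survival read as ATP light after 72 h; 0% = infected wells without compound and 100% = uninfected wells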
Mtb H37Rv – M. tuberculosis H37Rv growth inhibitors, H37Rv strain (AID 1626); hit rate 0.95% among 220,000; M. tuberculosis H37Rv growth inhibition; higher % means a stronger effect; one-dose inhibition, % at 10 µM; IC50 in µM for titrated hits;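 active = confirmed in a dose series; inconclusive = inhibition above 80% but not taken into the dose series; inactive = below 80% or under 30% at every dose of the series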;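 also: bacteria incubated seven days before Alamar blue readout; 0% = bacteria only wells and 100% = bacteria with antibiotic wells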
Mtb betalactam – beta-lactam sensitization of Mtb H37Rv | M. tuberculosis H37Rv growth with meropenem, percent inhibition; hits of this screen are not shown here | inhibition, % at 25 µM | hit rate 0.27% among 330,000 | AID 434955;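 active = about 74% or more and at least 40 points above the plate without the antibiotic, then above 30% in a dose series; inconclusive = first-round hits that could not be retested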;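 also: growth measured after seven days incubation then overnight dye step; 0% = bacteria only wells and 100% = bacteria with antibiotic; twin plates without the antibiotic show which effects depend on it; some results filed as inactive read as strong as hits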
Arbovirus inh repeat – also measured in Arbovirus inh; calls as there; inhibition, %; measured here: 10K subset replicate screen; many hits read low in the repeat;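 first of two repeat runs on a subset; 0% = infected and 100% = uninfected wells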
* hit, by the source's call; ? = inconclusive; · = no result given.

SMILES	RecA splice inh	YopH inh	Arbovirus inh	Mtb H37Rv	Mtb betalactam	others
CC1=C(C#N)C(Nc2cccc(C)n2)(C(F)(F)F)C(=O)N1 (configuration not stated)	0.7	-29	-1	9%	-3
CCOc1ccc(NC(=S)NC(=O)c2ccco2)cc1	1.0	·	·	7%	80
O=C(CSCc1ccc(Cl)cc1)Nc1ccc2c(c1)OCCO2	0.7	-21	6	3%	60
O=C(Nc1ccc(Br)cn1)c1cccc(C(=O)Nc2ccc(Br)cn2)c1	-2.3	·	·	·	8
COc1ccc(-n2c(-c3ccco3)nc3c(cnn3-c3ccc(C)cc3)c2=O)cc1	-1.2	·	·	5%	8
O=c1cc(N2CCCC2)c2ccccc2o1	-4.3	·	0	0%	-6
O=C(O)c1ccc[n+](Cc2ccc([N+](=O)[O-])cc2)c1	-0.2	·	·	·	-8
COc1ccc(NC(=O)C2CCCNC2=O)cc1 (configuration not stated)	-1.9	·	·	·	1
Cc1cccc(C)c1NC(=O)c1ccccc1C(=O)O	1.1	·	·	·	0
Cn1cc(C(=O)Nc2cccc(F)c2)cn1	-0.7	19	9	5%	-8
N=c1c(C(=O)NCc2ccc3c(c2)OCO3)cc2c(=O)n3ccccc3nc2n1CC1CCCO1 (configuration not stated)	0.5	·	·	·	-3
CCc1cc(C(N)=O)c(NC(=O)c2ccc(OC)cc2)s1	-2.8	-28	1	19%	58
CCOc1ccc(NC(=O)CC2C(=O)N(c3ccc(OC)cc3)C(=O)N2Cc2ccc(OC)cc2)cc1 (configuration not stated)	1.1	·	0	4%	4
COc1ccc(O)c(/C=N/NC(=O)c2ccc(CSc3nc(C)cc(C)n3)cc2)c1	2.0	-16	-36	12%	12
CCn1cc(C(=O)NCC2CCCO2)c(=O)c2cc(S(=O)(=O)N3CCC(C)CC3)ccc21 (configuration not stated)	-1.7	-29	7	-1%	?
COC(=O)c1cn(C(=O)c2ccco2)c2ccccc12	5.5	-34	-3	0%	2
CCC(C)(C#CCN1CCCCC1)OCCC#N (configuration not stated)	3.4	-28	1	-10%	7
O=C(COc1coc(CN2CCc3ccccc3C2)cc1=O)Nc1cccc([N+](=O)[O-])c1	1.4	·	·	·	-2
Cc1ccc(N2C(=O)CCSC23C(=O)Nc2ccccc23)cc1 (configuration not stated)	2.6	-12	-20	-6%	22
C=CCNc1nc2c(c(=O)n(C)c(=O)n2C)n1CCCCCC	1.8	7	11	-2%	1

The list goes on (6 carried over from the part before).
SMILES	RecA splice inh	YopH inh	Arbovirus inh	Mtb H37Rv	Mtb betalactam	others
CCn1cc(C(=O)NCC2CCCO2)c(=O)c2cc(S(=O)(=O)N3CCC(C)CC3)ccc21 (configuration not stated)	-1.7	-29	7	-1%	?
COC(=O)c1cn(C(=O)c2ccco2)c2ccccc12	5.5	-34	-3	0%	2
CCC(C)(C#CCN1CCCCC1)OCCC#N (configuration not stated)	3.4	-28	1	-10%	7
O=C(COc1coc(CN2CCc3ccccc3C2)cc1=O)Nc1cccc([N+](=O)[O-])c1	1.4	·	·	·	-2
Cc1ccc(N2C(=O)CCSC23C(=O)Nc2ccccc23)cc1 (configuration not stated)	2.6	-12	-20	-6%	22
C=CCNc1nc2c(c(=O)n(C)c(=O)n2C)n1CCCCCC	1.8	7	11	-2%	1
COc1cccc(-n2c(SCC(=O)NC3CCCC3)nnc2-c2ccco2)c1	2.0	6	-4	4%	23
O=c1c(O)c(-c2ccc(O)cc2)oc2cc(O)cc(O)c12	-4.9	·	·	-2%	-6
O=c1oc2cc(Br)ccc2n1CSC1=NCCS1	·	-31	-26	11%	14
Cn1c(N/N=C/c2cc3ccccc3nc2Cl)nc2ccccc21	-1.1	-4	-12	8%	52
CCOC(=O)CON1C(=O)C(C)(C)N(OCC(=O)OCC)C(=O)C1(C)C	1.3	-54	-2	1%	-5	Arbovirus inh repeat=1
CN(C)S(=O)(=O)c1ccc(C(=O)OCC2CCCO2)cc1 (configuration not stated)	1.3	·	·	·	4
O=C(CSc1nnnn1-c1ccccc1)Nc1ccc(Cl)cc1	6.8	8	5	-7%	-5	Arbovirus inh repeat=4
O=C(NCCc1ccccc1)C1CCCN(S(=O)(=O)c2cccc3nsnc23)C1 (configuration not stated)	3.0	-22	6	1%	-7
COc1ccc(/C=C/c2c(-c3cccc(C)c3)oc3ccc(N4CCOCC4)cc23)cc1	-6.5	·	·	-3%	-15
CCOC(=O)N1CCN(S(=O)(=O)c2c(C)cc(C)cc2C)CC1	-0.5	-35	-2	-3%	0
Cc1ccc(CNC(=O)c2ccccc2NC(=O)CSc2nnnn2C)cc1	7.6	-6	4	4%	·
O=C(CN(Cc1ccc(F)cc1)S(=O)(=O)c1ccccc1)N1CCCCC1	1.6	-50	4	6%	-10	Arbovirus inh repeat=1
CN(CCOc1ccccc1)C(=O)C1CCN(C(=O)c2ccc(F)cc2)CC1	1.7	·	·	·	-3
Cc1cccc(C(=O)OCC(=O)NC(=O)Cc2ccccc2)c1O	2.1	·	·	·	-14
COc1ccc(Cl)cc1S(=O)(=O)N1CCN(C(=O)c2cc(OC)c(OC)c(OC)c2)CC1	·	-33	-3	-4%	·
CCCCN(CC)CCNC(=O)c1cc2c(C)nc3ccccc3c2o1	-0.9	-6	13	3%	7	Arbovirus inh repeat=8
CCCCCOP(=O)(OCCCCC)C1(NS(=O)(=O)c2ccccc2)C=CC(=O)c2ccccc21 (configuration not stated)	81*	0	-31	0%	-3
O=C(c1ccccc1)c1ccc(OCCCCN2CCCCC2)cc1	0.3	-8	1	11%	-1
CSCC[C@H](NC(=O)C1CCN(S(=O)(=O)c2ccc(C)cc2)CC1)C(=O)NCC1CCCO1 (some centres not stated)	4.5	-31	6	2%	-4
Cc1cccc(S(=O)(=O)NCCc2cn3ccccc3n2)c1	-1.1	·	-8	-1%	10
CCCN(CCC)Cc1c(C(=O)N/N=C/C(C)=C\c2ccccc2)nnn1-c1nonc1N	3.3	·	·	·	-4
COCCNC(=O)C(Cc1c[nH]c2ccccc12)NC(=O)OCc1ccccc1 (configuration not stated)	-2.6	·	·	·	2
COc1ccc(/C(N)=N/OC(=O)CCC2CCCC2)cc1	15	·	·	·	-4
CCN(C(=O)CSc1nc2ccccc2c(=O)n1Cc1ccc(C)cc1)C1CCS(=O)(=O)C1 (configuration not stated)	-2.4	·	·	·	-2
Oc1ccc(-c2csc(Nc3ncccn3)n2)cc1	3.6	·	-31	4%	9
O=C(N/N=C\c1cc([N+](=O)[O-])ccc1N1CCOCC1)c1ccccn1	1.3	·	-7	1%	11
O=C(N/N=C\c1cccc(OC(=O)c2ccco2)c1)c1ccc2c(c1)OCO2	10	-22	0	8%	8
Cc1cc(/C=C2/SC(=O)N(CC(=O)OC(C)C)C2=O)c(C)n1C	-2.4	-1	-14	-2%	9
CC1C2(C)OCC(C#N)(C(=N)O2)C1(C#N)C#N (configuration not stated)	-39	·	·	-6%	-6
COc1cccc(CNC(=S)Nc2cc(OC)ccc2OC)c1	4.7	·	-4	5%	-2
COc1ccc(CNC(=O)c2cc(C(=O)C3CC3)c[nH]2)cc1	1.7	·	·	·	-2
CCN1CCN(C(=O)Cn2nc(-c3ccc(Cl)cc3)ccc2=O)CC1	-2.0	·	-2	-6%	-5
O=C(/C=C/c1cc([N+](=O)[O-])ccc1OC(F)F)NCc1ccc(Cl)cc1	1.2	-17	-10	3%	-6
COc1cc2nc(=S)n3[nH]c(CCn4c(C)nc5ccccc54)nc3c2cc1OC	-0.8	-24	-4	6%	-1
Cc1cc(OCC(=O)Nc2ccc(N3CCN(C(=O)c4ccco4)CC3)cc2)cc(C)c1Cl	-0.7	-35	-1	-3%	15
O=C(NCc1ccc2c(c1)OCO2)c1cc2n(n1)C(C(F)(F)F)CC(c1ccc3c(c1)OCO3)N2 (configuration not stated)	·	-35	-9	·	-11
Cc1cccc(N2C(=O)C(O)=C(C(=O)c3cccs3)C2c2cccc(Oc3ccccc3)c2)n1 (configuration not stated)	15	·	·	-5%	-10
CSc1nc(C)c(C(=O)Nc2ccccc2)c(-c2ccco2)c1C#N	6.6	·	·	61%	?
O=C(/C=C/c1ccco1)Nc1ccccc1N1CCCCC1	14	·	3	10%	16
COc1ccc(C(=O)C[n+]2ccc(C)cc2)cc1	2.0	-19	-4	2%	-4
COc1ccc(OC)c(C2C(C(C)=O)=C(O)C(=O)N2CCN2CCOCC2)c1 (configuration not stated)	-3.6	-39	1	5%	-11
CCc1nnc(NC(=O)CCC(=O)Nc2ccccc2)s1	-0.6	9	7	0%	1
CCc1cc(CNC(=O)C2CCC(=O)N(CCc3ccc(OC)cc3)C2)on1 (configuration not stated)	1.5	·	·	·	?
CC(=O)N1CCc2cc(C(=O)CN3CCN(c4ccccn4)CC3)ccc21	-3.6	·	·	-2%	-6
O=C(CNC(=O)c1ccccc1)Oc1ccc([N+](=O)[O-])cc1	-2.0	·	·	·	-3
COCCN(CC(=O)NCc1ccc2c(c1)OCO2)C(=O)CCC(=O)Nc1nccs1	-0.4	-9	-4	-9%	-3
Cc1cccc(-c2nsc(SCC(=O)NCC3CCCO3)n2)c1 (configuration not stated)	1.6	·	10	1.2µM*	100
COc1cc(NC(=O)c2ccccc2)c(OC)cc1NC(=O)Cc1ccccc1	2.5	·	·	·	47
COc1nc(NCc2ccco2)nc(NC2CCCCC2)n1	6.4	-16	-1	-3%	5
CCn1cc(C(=O)Nc2sc(C)c(C)c2C(=O)OC)cn1	-13	15	-6	2%	4
O=c1oc2cc(O)ccc2cc1-c1nc2c(s1)CCc1ccccc1-2	·	-35	-18	48%	46
Cc1cc([N+](=O)[O-])nn1CC(=O)NCc1ccco1	-4.0	-23	-1	-2%	-1
Cc1ccc(CNC(=O)c2sccc2-n2cccc2)cc1	1.3	-47	5	0%	90
CCOc1ccccc1N1CCN(C(=O)c2cc[n+]([O-])cc2)CC1	0.6	-6	7	-4%	-7
CN(C)/C=C1\C(=O)NN=C1C(F)(F)F	-5.0	·	14	1%	-11
COc1ccc(C(=O)Nc2cc(C)nc3ccccc23)cc1OC	·	-16	-4	2%	1
O=C1Oc2ccccc2C2(O)C3CCCCCC3C12 (configuration not stated)	0.4	-44	-1	-2%	-7
c1ccc(N2CCN(c3nc4ccccc4n4cnnc34)CC2)cc1	1.5	-46	-21	39%	10
O=c1c(-c2n[nH]c(=S)o2)cccn1Cc1ccccc1	-0.7	·	3	-8%	-5
CCCNC(=O)NC(=O)COC(=O)c1oc2ccc(OCC)cc2c1C	-5.5	2	2	-3%	-6

Brought forward from above: 3 entries; new compounds follow.
SMILES	RecA splice inh	YopH inh	Arbovirus inh	Mtb H37Rv	Mtb betalactam	others
c1ccc(N2CCN(c3nc4ccccc4n4cnnc34)CC2)cc1	1.5	-46	-21	39%	10
O=c1c(-c2n[nH]c(=S)o2)cccn1Cc1ccccc1	-0.7	·	3	-8%	-5
CCCNC(=O)NC(=O)COC(=O)c1oc2ccc(OCC)cc2c1C	-5.5	2	2	-3%	-6
CC(=O)c1ccccc1NC(=O)CCCNC(=O)c1ccc(Cl)cc1	-0.7	·	·	·	0
CC1CN(C(=O)c2ccc3c(c2)OCO3)CC(C)O1 (configuration not stated)	-0.1	8	9	-1%	1
O=C(O)C1CCN(C(=O)COc2ccc3c4c(c(=O)oc3c2)CCC4)CC1	4.4	-43	8	-7%	-5
CCCOC(=O)Nc1ccc([As](=O)(O)O)cc1NC(=O)OCCC	1.2	·	·	0%	5
Cn1c(=O)[nH]c2ccc([N+](=O)[O-])nc21	1.8	-9	-7	-10%	1
CN(C)CC(O)COc1ccc(C(C)(C)c2ccc(OCC(O)CN(C)C)cc2)cc1 (configuration not stated)	-1.0	6	-32	-8%	2
CCOC(=O)CSc1nc2ccccc2c(=O)n1Cc1ccco1	1.5	-20	-2	0%	5
Nc1nc(Nc2ccc(Cl)cc2)n[nH]1	-2.9	-19	0	1%	-5
C=CCOc1cc(C)nc(-c2ccccc2O)n1	1.9	-3	-4	-6%	-8
O=S(=O)(/C=C/c1ccccc1)N1CCN(c2cccc(Cl)c2)CC1	4.2	-12	9	-7%	-3
CCCC1S/C(=N/N=C/c2cccs2)NC1=O (configuration not stated)	-0.7	-34	-2	6%	39
COc1ccc(C2CC(c3ccccc3)=NN2S(=O)(=O)c2ccccc2)c(OC)c1 (configuration not stated)	2.9	-18	-13	-1%	6
CCOC(=O)C1=CCN(Cc2ccccc2)CC1	-1.1	·	·	·	4
Cc1ccc(C(=O)CC(C(=O)O)n2cccn2)cc1 (configuration not stated)	-0.7	-36	-2	·	1

Only part of the results is shown (hit frequency here may not be typical).
